RanGTP-Imp inh = inhibitors of RanGTP-importin-beta interaction, primary screen, biochemical, FRET, CFP-Ran, YFP-importin-beta, homogeneous; cell-free CFP-Ran/YFP-importin-beta FRET ratio; inhibition, % (no concentration beside the values); 1.1% of 300,000 active; AID 2216, 2009;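 active means most replicates above 15%; inconclusive means exactly half above 15%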;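 further: 0% = DMSO wells and 100% = Ran loaded with GDP instead of GTP; wells of about 40 µL received 100 nL stock; the first replicate is given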
AF4-AF9 inh = inhibitors of AF4 peptide binding to AF9, primary screen, biochemical, AlphaScreen, biotin-AF4 peptide, FLAG-AF9, single point | inhibition, % at 10 µM | 0.47% of 350,000 active | AID 651704, 2012;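 active means every replicate reaching a set inhibition limit, whatever the replicate mean, cut at about 25% in these data; inconclusive means mean inhibition reaches that limit but some replicates miss it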;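 further: 0% = plate neutral control median and 100% = total signal loss; the record names both 10 and 1 µM as test concentration; the first replicate is given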
Target sequence (P42568 whole entry, looked up): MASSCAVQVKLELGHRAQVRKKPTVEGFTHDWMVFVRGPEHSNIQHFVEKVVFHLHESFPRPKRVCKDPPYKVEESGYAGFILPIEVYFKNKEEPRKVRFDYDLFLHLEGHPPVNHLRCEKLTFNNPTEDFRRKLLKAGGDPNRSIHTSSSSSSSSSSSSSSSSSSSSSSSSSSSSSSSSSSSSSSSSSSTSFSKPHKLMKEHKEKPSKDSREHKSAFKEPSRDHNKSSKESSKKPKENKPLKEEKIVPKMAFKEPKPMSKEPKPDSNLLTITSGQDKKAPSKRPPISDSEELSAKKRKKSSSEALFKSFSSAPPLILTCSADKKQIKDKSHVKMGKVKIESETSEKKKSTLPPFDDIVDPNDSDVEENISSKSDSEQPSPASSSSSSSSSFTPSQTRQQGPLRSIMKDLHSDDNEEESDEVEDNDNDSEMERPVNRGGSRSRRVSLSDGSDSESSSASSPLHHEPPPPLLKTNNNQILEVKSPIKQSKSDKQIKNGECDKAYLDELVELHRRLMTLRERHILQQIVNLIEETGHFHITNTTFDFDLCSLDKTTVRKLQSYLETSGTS
Calb FLC = C. albicans growth inhibition with fluconazole, primary screen, CaCi-2 strain, Alamar Blue fluorescence | C. albicans CaCi-2 (fluconazole-resistant clinical isolate) + fluconazole, 48 h | growth inhibition, % (concentration not given with the values) | 0.57% of 300,000 active | AID 1979, 2009;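 active means most replicates above 75%; inconclusive means exactly half above 75%; inactive means most below 75%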;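 further: all wells also contain fluconazole at 8 µg/ml as a sub-toxic cotreatment; 0% = median of DMSO wells and 100% = median of geldanamycin control wells; wells of about 8 µL received 7.5 nL stock; the first replicate is given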
T cruzi inh = inhibitors of intracellular T. cruzi growth, primary screen, luminescence, NIH3T3 host cells | T. cruzi beta-gal in NIH3T3, 90 h | inhibition, % (concentration not given with the values) | 1.4% of 300,000 active | AID 1885, 2009;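 active means mean inhibition across valid replicates above about 55%, limit read from the data; inconclusive means mean below that limit but half or more replicates reach it; inactive means mean below it, under half of replicates reach it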;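 further: signal also drops with host cell toxicity which is not excluded here; 0% = plate median of DMSO wells and 100% = zero luminescence signal; higher percent means less beta-gal luminescence so fewer parasites; stock transfer was 50 nL into about 50 µL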
Beta apoptosis = inhibitors of cytokine-induced beta cell apoptosis, primary screen, luminescence; INS-1E cytokine-induced death, ATP luminescence, 48 h; percent of positive-control rescue, neutral wells zero; protection from apoptosis, % (test concentration not listed); 0.8% of 300,000 active;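 active means all replicates at 75% or more, or half of them and the mean; inconclusive means half reach 75% but not the mean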;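 further: 0% = cytokine-treated negative control wells and 100% = positive control rescue; higher means more ATP so stronger rescue from cytokine killing; wells of about 40 µL received 100 nL stock; the first replicate is given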
Ecoli rRNA inh = reduced GFP signal of wild-type E. coli, primary screen, bacterial rRNA inhibitor project, GFP/RFP fluorescence, OD600, single point; 1.6% of 350,000 active; GFP signal change (wild-type ribosome), % (concentration not given with the values); E. coli WT GFP vs humanized-ribosome RFP mutants, 24 h; hits give low values; DMSO median 0, no signal -100; AID 720706, 2013;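 active means significant combined selectivity score with lowered wild-type GFP, culture density cut under 30%, mutant RFP and density less affected; inactive means any of these conditions unmet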; further: one replicate is shown; some compounds called inactive have numbers as strong as hits
Vif TR-FRET = inhibitors of Vif binding to APOBEC3G peptide, primary screen, biochemical, TR-FRET, GST-Vif 1-94, biotin-A3G peptide, dose response retest (AID 1117319); TR-FRET GST-Vif / biotin-A3G peptide binding; higher % means a stronger effect; test concentration not given here; strong numbers were not always called active; one-dose inhibition, %; IC50 in µM for titrated hits; 0.57% of 260,000 active;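 active means above the screen mean plus three standard deviations and confirmed in dose response; inconclusive means results disagree or hit not tested in dose response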;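 further: Vif residues 1-94 fused to GST binding biotinylated APOBEC3G peptide 110-148; 0% = full assay without inhibitor and 100% = GST in place of GST-Vif; retest series ran down from 100 µM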
A1 inh = caspase 3/7 activation in MEF A1-2A-BIM cells, primary screen, A1 inhibitor project, cell-based, luminescence, HTS | Caspase-Glo 3/7 luminescence, 3 h; percent of clofoctol response, vehicle zero | caspase activation, % (concentration not given with the values) | 0.066% of 330,000 active;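 active means over half of replicate activation scores above 10%, or exactly half above 10 with the replicate mean above 10; inconclusive means replicate mean below 10 yet half the replicates above 10; inactive means over half of replicates below 10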;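 further: wells of about 30 µL received 50 nL stock; many hits fall short of the cut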
Ecoli rRNA inh OD600 = second read-out of Ecoli rRNA inh, no call of its own (marks repeat the call); OD600 change, %; measured here: OD600 growth;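 optical density of the mix in the first replicate; 0 = DMSO median and -100 = no signal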
Ecoli rRNA inh RFP = further read-out of Ecoli rRNA inh, marked with its call; RFP signal change, %; measured here: RFP humanized mutant strains;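 first replicate; 0 = DMSO median and -100 = no signal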
* hit, by the source's call; & = joins results of further samples. Some of the compounds tested; rates above refer to the full screens.

For OC(COCC1COc2ccccc2O1)CN1CCN(c2ccccc2F)CC1 (centres undefined) the results were RanGTP-Imp inh inconclusive, Calb FLC -21, T cruzi inh 17, Beta apoptosis 3, Vif TR-FRET 2% and A1 inh 1.6.
For CC(C)c1nnc(NC(=O)CCC(=O)N2CCN(c3ccc(F)cc3)CC2)s1 the results were RanGTP-Imp inh 0.8, AF4-AF9 inh -3.3, Calb FLC 5, T cruzi inh 12, Ecoli rRNA inh -3, Vif TR-FRET 0%, A1 inh -0.2, Ecoli rRNA inh OD600 -5 and Ecoli rRNA inh RFP 0.3.
Screening O=C(NCc1ccccc1Cl)c1cc(=O)[nH]c2ccccc12 returned RanGTP-Imp inh 3.5, AF4-AF9 inh 0.0, Calb FLC -4, T cruzi inh -7, Beta apoptosis -4, Ecoli rRNA inh 15, A1 inh -0.3, Ecoli rRNA inh OD600 11 and Ecoli rRNA inh RFP 7.0.
`Cc1coc2cc3oc(=O)c4c(c3cc12)CCCC4` gave RanGTP-Imp inh inconclusive, AF4-AF9 inh -0.4, Calb FLC -3, T cruzi inh 22, Beta apoptosis -5, Ecoli rRNA inh 12, Vif TR-FRET -1%, A1 inh 2.4, Ecoli rRNA inh OD600 12 and Ecoli rRNA inh RFP -3.3.
c1ccc(C2=NN(c3ccccc3)C(c3ccco3)C2)cc1 (centres undefined) was read as RanGTP-Imp inh -6.7, AF4-AF9 inh -2.6, Calb FLC -26, T cruzi inh 29, Ecoli rRNA inh -19, Vif TR-FRET 13%, A1 inh 0.3, Ecoli rRNA inh OD600 -19 and Ecoli rRNA inh RFP -2.2.
For COc1ccc(NC(=O)c2cc3nc(-c4ccccc4)cc(C)n3n2)cc1OC the results were RanGTP-Imp inh -1.9, AF4-AF9 inh -1.0, Calb FLC 10, T cruzi inh 10, Beta apoptosis 7, Ecoli rRNA inh -22, Vif TR-FRET 4%, A1 inh -0.5, Ecoli rRNA inh OD600 -22 and Ecoli rRNA inh RFP -7.0.
`Cc1ccc(C(=O)N/N=C\c2ccc(Br)o2)o1` gave RanGTP-Imp inh 2.6, Calb FLC 0, T cruzi inh 10, Beta apoptosis 7, Vif TR-FRET -1% and A1 inh -0.9.
CCCCC(=O)Nc1nnc(/C=C/c2ccc(OC)cc2)s1 was read as RanGTP-Imp inh -3.5, Calb FLC 2, T cruzi inh 3, Beta apoptosis -3 and A1 inh -0.2.
CC(C)CNC(=O)CN(C1CCCCC1)S(=O)(=O)c1ccccc1 was read as RanGTP-Imp inh 3.1, Calb FLC inconclusive, T cruzi inh -3, Beta apoptosis -1, Vif TR-FRET -4% and A1 inh -0.9.
`COc1ccc(CCC2(C)NC(=O)NC2=O)cc1` (centres undefined) gave RanGTP-Imp inh 4.9, AF4-AF9 inh -1.1, Calb FLC -5, T cruzi inh -18, Beta apoptosis 2, Ecoli rRNA inh 20, Vif TR-FRET 2%, A1 inh 0.2, Ecoli rRNA inh OD600 7 and Ecoli rRNA inh RFP 4.1.
For Cc1ccc2c(c1)-c1c(ssc1=S)C(C)(C)N2C(=O)CSC1=NCCS1 the results were RanGTP-Imp inh -0.6, AF4-AF9 inh inconclusive, Calb FLC -9, T cruzi inh 27, Beta apoptosis 4, Ecoli rRNA inh -26*, Vif TR-FRET 2%, A1 inh 0.5, Ecoli rRNA inh OD600 -14* and Ecoli rRNA inh RFP 2.6*.
CCCNc1cc(C)oc(=O)c1C(=O)CCC was read as RanGTP-Imp inh 1.7, Calb FLC -5, T cruzi inh 0, Beta apoptosis -1, Vif TR-FRET 0% and A1 inh -1.6.
For Cc1ccc[n+](-c2[nH]c(=O)sc2/C=N/N=C(\[O-])c2cccnc2)c1 the results were RanGTP-Imp inh 2.0, AF4-AF9 inh -1.6, Calb FLC 7, T cruzi inh -9, Beta apoptosis -2, Ecoli rRNA inh 12, A1 inh 0.9, Ecoli rRNA inh OD600 1 and Ecoli rRNA inh RFP 2.5.
Screening CCn1cc(C(C)NC(=O)Nc2ccccc2C(=O)OC)c(C)n1 (centres undefined) returned RanGTP-Imp inh 0.8, AF4-AF9 inh -1.5, Calb FLC -9, T cruzi inh -6, Beta apoptosis -8, Ecoli rRNA inh -1, Vif TR-FRET -8%, A1 inh -0.1, Ecoli rRNA inh OD600 -4 and Ecoli rRNA inh RFP 4.6.
Screening COc1ccccc1CNC(=O)CN(C)CC(=O)Nc1ccccc1Br returned AF4-AF9 inh -5.0, Beta apoptosis -1, Ecoli rRNA inh -14, Vif TR-FRET -2%, A1 inh 0.8, Ecoli rRNA inh OD600 -13 and Ecoli rRNA inh RFP 5.3.
`NS(=O)(=O)c1cccc(NC(=O)COC(=O)COc2ccc3ccccc3c2)c1` gave RanGTP-Imp inh 1.6, AF4-AF9 inh -3.0, Calb FLC -20, T cruzi inh -3, Beta apoptosis -2, Ecoli rRNA inh -13, Vif TR-FRET -7%, A1 inh -0.7, Ecoli rRNA inh OD600 -3 and Ecoli rRNA inh RFP -2.1.
`CC(C)CNc1nnnc2c1sc1nc(N3CCOCC3)c3c(c12)CCCC3` gave RanGTP-Imp inh -0.2, AF4-AF9 inh -5.3, Calb FLC 4, T cruzi inh 22, Ecoli rRNA inh 1, Vif TR-FRET -6%, Ecoli rRNA inh OD600 -4 and Ecoli rRNA inh RFP 0.9.
`S=C(N/N=C/c1ccccc1Cl)Nc1ccccc1` gave RanGTP-Imp inh 9.0, Calb FLC -17, T cruzi inh 17, Beta apoptosis 8, Vif TR-FRET 1% and A1 inh -0.4.
`C/C=C(\C)C(=O)O[C@@H]([C@H](O)c1cc2ccc(=O)oc2cc1OC)C(C)(C)O` gave AF4-AF9 inh -4.1, Beta apoptosis -8, Ecoli rRNA inh 8, A1 inh 0.2, Ecoli rRNA inh OD600 11 and Ecoli rRNA inh RFP 0.1.
`CC(OC(=O)c1ccc(S(=O)(=O)N2CCCCC2)cc1)C(=O)NC1CCCCC1C` (centres undefined) gave RanGTP-Imp inh -0.7, AF4-AF9 inh -1.3, Calb FLC 5, T cruzi inh -7, Beta apoptosis 2, Ecoli rRNA inh 13, Vif TR-FRET 2%, A1 inh -0.1, Ecoli rRNA inh OD600 16 and Ecoli rRNA inh RFP 32.
For O=C(CCN1C(=O)/C(=C/c2ccccc2Cl)SC1=S)Nc1ccccn1 the results were RanGTP-Imp inh -1.0, AF4-AF9 inh 8.2, Calb FLC -5, T cruzi inh -10, Beta apoptosis 1, Ecoli rRNA inh -3, Vif TR-FRET 0%, A1 inh -0.4, Ecoli rRNA inh OD600 -8 and Ecoli rRNA inh RFP 0.6.
Screening CCN(C[C@H]1N[C@@](C)(C(=O)OC)[C@H]2C(=O)N(C)C(=O)[C@@H]12)S(=O)(=O)c1ccc(C(F)(F)F)cc1 returned AF4-AF9 inh -7.1, Beta apoptosis -6, Ecoli rRNA inh 0, Vif TR-FRET 0%, A1 inh 0.2, Ecoli rRNA inh OD600 -1 and Ecoli rRNA inh RFP -2.7.
Cc1ccc(-c2ccc(C(=O)Nc3cccc(F)c3)o2)c2ccccc12 was read as RanGTP-Imp inh 5.6, AF4-AF9 inh 11, Calb FLC -8, T cruzi inh 2, Beta apoptosis -1, Ecoli rRNA inh 7, Vif TR-FRET 2%, A1 inh 2.4, Ecoli rRNA inh OD600 24 and Ecoli rRNA inh RFP 8.6.
Screening CC1=C(C(N)=O)C(c2cccs2)n2ncnc2N1 (centres undefined) returned RanGTP-Imp inh -0.5, AF4-AF9 inh -21, Calb FLC -7, T cruzi inh -7, Beta apoptosis -1, Ecoli rRNA inh 14, Vif TR-FRET 17%, A1 inh 0.1, Ecoli rRNA inh OD600 3 and Ecoli rRNA inh RFP 1.0.
`COc1ccccc1NC(=O)Cn1c(=O)n(C)c(=O)c2sc3c(c21)COC(C)(C)C3` gave RanGTP-Imp inh 2.9, AF4-AF9 inh 1.6, Calb FLC 18, T cruzi inh 10, Beta apoptosis 3, Ecoli rRNA inh 6, Vif TR-FRET 7%, A1 inh 0.7, Ecoli rRNA inh OD600 -2 and Ecoli rRNA inh RFP 1.3.
Screening CCCCCC(=O)N1CCN(c2ccc(C(C)=O)cc2F)CC1 returned RanGTP-Imp inh 0.8, AF4-AF9 inh -7.7, Calb FLC -6, T cruzi inh 9, Beta apoptosis 0, Ecoli rRNA inh 0, Vif TR-FRET 3%, A1 inh -0.2, Ecoli rRNA inh OD600 -14 and Ecoli rRNA inh RFP -4.7.
`Cc1ccccc1NC1=CC(=O)CC(C)(C)C1` gave RanGTP-Imp inh 4.2, Calb FLC -2, T cruzi inh 7, Vif TR-FRET 4% and A1 inh 0.3.
Cc1c(OCC(=O)NCc2cccnc2)ccc2c3c(c(=O)oc12)CCC3 was read as RanGTP-Imp inh -2.0, AF4-AF9 inh 0.4, Calb FLC 17, T cruzi inh -5, Beta apoptosis 4, Ecoli rRNA inh 9, Vif TR-FRET 4%, A1 inh -1.2, Ecoli rRNA inh OD600 11 and Ecoli rRNA inh RFP -1.3.
For COc1ccccc1CN1C(=O)CNC1=S the results were RanGTP-Imp inh -4.9, Calb FLC 0, T cruzi inh -13, Beta apoptosis 1, Vif TR-FRET 3% and A1 inh 1.4.
O=C1NC(=O)c2cc3ccccc3cc21 was read as AF4-AF9 inh 1.2, Beta apoptosis -1, Ecoli rRNA inh 0, Vif TR-FRET 1%, A1 inh 1.9, Ecoli rRNA inh OD600 -11 and Ecoli rRNA inh RFP -4.0.
CCOC(=O)c1ccc(S(=O)(=O)N2CCN(C(=O)CSc3nc4ccccc4o3)CC2)cc1 was read as RanGTP-Imp inh -0.8, AF4-AF9 inh -5.9, Calb FLC 8, T cruzi inh -4, Beta apoptosis -4, Ecoli rRNA inh -5, A1 inh -0.4, Ecoli rRNA inh OD600 -4 and Ecoli rRNA inh RFP 4.8.
`O=S(=O)(Nc1ccc(N=Nc2ccc(O)c3ccccc23)cc1)c1ccccc1` gave RanGTP-Imp inh 3.8, Calb FLC -5, T cruzi inh 9, Beta apoptosis 16 and A1 inh -1.2.
COCCNc1oc(-c2ccc(Cl)cc2)nc1C#N was read as RanGTP-Imp inh 0.8, Calb FLC -3, T cruzi inh 3 and Vif TR-FRET -3%.
For CCOc1ccc2nc(NC(=O)CSc3nc4ccccc4c(=O)n3Cc3ccco3)sc2c1 the results were RanGTP-Imp inh -5.5, Calb FLC 4, T cruzi inh -1, Beta apoptosis 4, Vif TR-FRET 0%&2% and A1 inh -1.0.
Screening CCC1(CC)NC(=O)N(CC(=O)OCn2nnc3ccccc3c2=O)C1=O returned RanGTP-Imp inh -0.9, Calb FLC 3, T cruzi inh -6, Beta apoptosis -4, Vif TR-FRET 0% and A1 inh 0.6.
